Resorufin autofl – qHTS Assay for Spectroscopic Profiling in Resorufin Spectral Region. Compound fluorescence, resorufin region 547/598 nm, buffer; hits give high values. max dye-equivalent concentration, M. 59,000 tested, 0.04% active. AID 588, 2007; active = above 10 nM dye equivalent; inconclusive = 1 to 10 nM; inactive = 1 nM or less; a few of its hits are not listed in these tables; further: highest value over a series up to 38 µM
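Read-out: intrinsic compound fluorescence at ex 547/em 598 nm after 15 min at RT in pH 8.0 Tris (100 mM). Values expressed as resorufin-equivalent concentration from per-plate standard series.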
AID923 – qHTS Assay for Allosteric/Competitive Inhibitors of Caspase-1: Spectroscopic Profiling in AFC Spectral Region; compound fluorescence, AFC spectral region (405/520 nm); almost no hit is shown here; Potency, µM (titrated, usually from 57.5 µM), inactives show at the top dose fluorescence increase, most hits filed as activators; 75,000 tested, 1.1% active; AID 923, 2007; active means well fitted activation curve with a large enough effect; inconclusive means small, poorly fitted or top-dose-only effect;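 further: potency means the concentration at half of the fitted maximal effect; 0% is about no effect; scaled to a free AFC standard on each plate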
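Baseline compound fluorescence (AFC region, 405 nm ex/520 nm em) taken from the intercept of kinetic reads with 50 nM caspase-1 and 5 uM Ac-WEHD-AFC; normalized to an on-plate AFC standard curve; compounds titrated up to 57 uM.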
A488 autofl – qHTS Assay for Spectroscopic Profiling in A488 Spectral Region | compound autofluorescence, A488 spectral region, dye equivalency; hits give high values | max dye equivalency, M | 59,000 tested, 0.1% active; active = above 10 nM dye equivalent; inconclusive = 1 to 10 nM; inactive = 1 nM or less; about half of its hits are not listed in these tables;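 further: highest value over a series up to 38 µM; compound alone in buffer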
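Intrinsic compound fluorescence is measured in 100 mM Tris buffer at pH 8.0 following 15 min incubation at room temperature. Intensities at 480 nm excitation/540 nm emission are calibrated to an on-plate A488 concentration series, giving dye-equivalent concentrations.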
A647 fluor – qHTS Assay for Spectroscopic Profiling in A647 Spectral Region. Compound fluorescence, A647 channel (570/671 nm), Tris buffer. max dye-equivalent concentration, M. 59,000 tested, under 10 active; active means above 1 µM dye equivalent; inconclusive means 0.1 to 1 µM; inactive means 0.1 µM or less;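 further: values scaled relative to a standard on each plate; highest value over a series up to 38 µM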
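Compound fluorescence was measured in 100 mM Tris buffer, pH 8.0, after 15 min at room temperature, using 570 nm excitation and 671 nm emission filters. Signal was normalized to a per-plate Alexa 647 standard curve and expressed as dye-equivalent concentration at each compound concentration.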
TSHR agonist – qHTS Assay for Agonists of the Thyroid Stimulating Hormone Receptor. Potency, µM (titrated, usually from 57.1 µM), for inactives: at the highest dose activation, actives largely listed as activators. 73,000 tested, 0.48% active. HEK293-CNG-TSHR cells (CNG channel as cAMP sensor), membrane potential dye, cAMP. AID 926, 2007; active = well fitted activation curve of enough size with the parental cells flat; inconclusive = any curve in the parental cells; inactive = parental cells flat and receptor cells flat or falling; further: potency means the concentration at half of the fitted maximal effect; % of control where 0% means no effect; weak receptor curves with flat parental cells got no call and are not listed
Target sequence (P16473 whole entry, looked up): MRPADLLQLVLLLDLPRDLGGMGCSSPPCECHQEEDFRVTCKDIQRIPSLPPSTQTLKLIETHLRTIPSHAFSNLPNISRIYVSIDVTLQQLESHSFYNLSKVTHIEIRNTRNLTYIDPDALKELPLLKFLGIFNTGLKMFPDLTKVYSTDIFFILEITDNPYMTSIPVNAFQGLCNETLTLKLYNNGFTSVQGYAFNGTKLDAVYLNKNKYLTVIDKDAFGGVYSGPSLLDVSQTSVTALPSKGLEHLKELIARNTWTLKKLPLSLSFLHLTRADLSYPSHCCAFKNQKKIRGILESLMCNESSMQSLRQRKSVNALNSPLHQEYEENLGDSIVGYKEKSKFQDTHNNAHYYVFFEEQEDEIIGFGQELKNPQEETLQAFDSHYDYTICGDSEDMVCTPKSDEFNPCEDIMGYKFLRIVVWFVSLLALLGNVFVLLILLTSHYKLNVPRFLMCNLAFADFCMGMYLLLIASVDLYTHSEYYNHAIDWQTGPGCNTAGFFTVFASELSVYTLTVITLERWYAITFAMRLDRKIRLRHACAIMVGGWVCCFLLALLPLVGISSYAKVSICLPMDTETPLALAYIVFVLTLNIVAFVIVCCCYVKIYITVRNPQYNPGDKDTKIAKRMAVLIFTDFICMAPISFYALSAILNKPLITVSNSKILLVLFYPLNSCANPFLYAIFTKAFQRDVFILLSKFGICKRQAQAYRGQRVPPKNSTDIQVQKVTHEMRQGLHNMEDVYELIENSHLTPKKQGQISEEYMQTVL
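HEK 293 cells stably expressing TSHR and a modified CNG channel, with CNG-only parental cells as counterscreen, were preloaded 60 min at room temperature with membrane potential dye containing 100 uM RO 20-1724. Compound exposure was 30 min, and depolarization was read as fluorescence at 590 nm.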
Active calls of the source: *; i = inactive; ? = inconclusive; . = no result given; & = joins results of further samples; [ ] = dose if it differs, or a comment. The list is partial; rates above refer to the full screens.

smiles	Resorufin autofl	AID923	A488 autofl	A647 fluor	TSHR agonist
O=C(Nc1ccccc1)C1CCN(c2nccs2)CC1	i	-0.9%	i	1e-09	-2%
COc1ccc(CC(=O)N2CCN(c3ccccn3)CC2)cc1OC	i	1.5%	i	8.2e-09	0%
COc1ccc2oc(=O)c(C(=O)N3CCN(c4ccc(F)cc4)CC3)cc2c1	i	1.0%	i	1.2e-08	1%
Cc1nc2c(C(=O)NCc3ccc4c(c3)OCO4)c[nH]n2c(=O)c1Cc1ccccc1F	i	2.0%	i	1.6e-09	24%
C[N+]1(CCC[N+]2(C)C[C@H]3[C@H](C2)[C@H]2C=C[C@@H]3CC2)CCOCC1 (some centres undefined)	i	-5.3%[11.5 µM]	i	2.6e-08	-6%[11.4 µM]
O=C(CSc1nnc(-c2ccc(F)cc2)o1)Nc1ccc(S(=O)(=O)N2CCCCCC2)cc1	i	0.5%	i	3.6e-08	10%
N#CC1=C(SCC(N)=O)NC(=O)CC1c1cccc2ccccc12 (centres undefined)	.	3.1%	.	.	-8%
CCN(CC)CCOC(=O)c1cc(Cl)c(N)cc1OC	i	-2.4%&0.6%	i	5e-09	?
COc1ccc(CN2CCC(C(=O)N(C)CCc3ccc(OC)c(OC)c3)CC2)c(OC)c1	i	0.1%	i	1.8e-08	2%
CCCOc1ccccc1C(=O)NCCCC(=O)O	i	.	i	7.9e-08	.
Cc1cc(NC(=O)COC(=O)C2CCCN2C(=O)c2cccs2)no1 (centres undefined)	i	-1.6%	i	2e-08	1%
O=C(NCc1ccc2c(c1)OCO2)c1cc2c(s1)CS(=O)(=O)C2	i	0.6%	i	1e-09	-2%[11.4 µM]
Cc1cc(NC(=O)c2ccc(Cn3nc(C)c(Br)c3C)o2)no1	i	-2.5%	i	1.9e-08	-16%
CCOC(=O)Nc1cc(OCC)c(NC(=O)C2CC2)cc1OCC	i	2.6%	i	1e-09	2%
C/C(Nc1cccc(F)c1)=C(/C#N)C(N)=O	i	0.2%	i	4.2e-08	.
O=C(c1ccccc1)N1CCN(C2CC3CCC2C3)CC1 (centres undefined)	i	0.1%	i	6.1e-09	2%
CC(=O)Nc1ccc(S(=O)(=O)N2CCN=C2C)cc1	i	1.1%	i	8.7e-09	0%
O=C(c1noc2c1CCCCC2)N1CCN(C(c2ccccc2)c2ccccc2)CC1	i	-0.5%	i	1e-09	14%
COc1ccc(S(=O)(=O)NCCc2ccc(F)cc2)cc1	i	-1.7%	i	1e-09	0%
CC1CCN(Cc2nc3c(c(=O)n(C)c(=O)n3C)n2Cc2c(F)cccc2Cl)CC1	i	-0.3%	i	4.5e-09	21%
CC(=O)Nc1ccc(N2CCOCC2)c(C(=O)Nc2cccc(C)c2)c1	i	2.8%	i	1e-09	0%
O=C(CN1CCN(c2ccccn2)CC1)Nc1ccc2ccccc2c1	i	-0.6%	i	3.1e-08	?
Nc1ncnc2nc(N3CCN(CCO)CC3)[nH]c12	i	3.5%[11.5 µM]	i	4.9e-08	?
NC1=NC(c2cn(-c3ccccc3)nc2-c2cccs2)n2c(nc3ccccc32)N1 (centres undefined)	i	-0.8%	i	2.3e-08	-4%
CC(C)CC(=O)Nc1ncnc2c1C(=O)CC(C)(C)C2	i	.	i	1e-09	.
O=C1N2CCSC2=NC1(Nc1ccccn1)C(F)(F)F (centres undefined)	i	-2.3%	i	1.2e-08	2%
O=C(Cn1cnc2ccccc21)NCCCN1CCOCC1	i	-1.3%	i	3.4e-08	0%
CCn1cc(C(=O)N2CCn3c(nc4ccccc43)C2)c(=O)c2ccc(C)nc21	.	0.7%	.	.	11%
CC(=O)Nc1ccc(S(=O)(=O)NCC2CCC(C(=O)N3CCCCCC3)CC2)cc1 (centres undefined)	i	-1.0%	i	2e-09	-6%[11.4 µM]
N#CC12C(N)=NC3(OCCO3)C1(C#N)C1=C(CCC1)NC2c1ccccc1 (centres undefined)	i	?	i	2.7e-08	-1%

(further entries)
smiles	Resorufin autofl	AID923	A488 autofl	A647 fluor	TSHR agonist
O=C(O)C1C2C=CC(O2)C1C(=O)NC1CCCc2ccccc21 (centres undefined)	i	0.5%	i	2.6e-09	-2%
CCN1CCN(S(=O)(=O)c2cc(C)c(OC)cc2C)CC1	i	0.0%	i	4.1e-08	7%
CN(Cc1cc2ccccc2[nH]c1=O)S(C)(=O)=O	i	1.2%	i	1e-09	8%
Cn1c(CCN2CCCCC2)nc2cc(NC(=O)Nc3ccccc3)ccc21	i	0.5%	i	3.2e-09	-13%
COc1ccccc1N1CCN(CC(=O)Nc2c(C)n[nH]c2C)CC1	i	-0.4%	i	1.4e-09	2%
Cn1c(CN2CCN(c3ccc(Cl)cc3)CC2)nc2ccccc21	.	-1.5%	.	.	3%[11.4 µM]
O=C(NCc1ccccc1)c1c(O)c2cccc3c2n(c1=O)CCC3	i	-0.9%	i	5.1e-09	24%
Cc1nc2cncnc2n(Cc2ccc(F)cc2)c1=O	i	2.1%	i	1.4e-09	3%
Nn1c(SCc2cccc3ccccc23)nnc1-c1ccco1	i	1.9%	i	3.5e-09	29%
COc1cc(Cl)ccc1S(=O)(=O)n1nc(C)cc1C	i	0.0%	i	2.5e-09	1%
CCOc1nc(C)ccc1-c1noc(-c2ccccc2OC)n1	i	-1.7%	i	4.5e-08	?
O=C(c1ccco1)N(Cc1ccco1)c1ccc(O)cc1	i	-1.1%	i	1e-09	1%
Cc1cccc(-c2nnc3n2N=C(c2ccc(Br)cc2)CS3)c1	i	.	i	2.2e-08	.
C[C@H](CCC(=O)NCC(=O)O)[C@H]1CC[C@H]2[C@H]3[C@@H](C[C@@H](O)[C@]12C)[C@]1(C)CC[C@H](O)C[C@@H]1C[C@@H]3O	i	0.1%[25.7 µM]	i	3.1e-09	-7%[25.6 µM]
CCCS(=O)(=O)c1c(S(=O)(=O)CCC)c2ccccn2c1C(=O)OC	.	1.4%	.	.	1%
Cc1nc2cnc(Oc3ccccc3)nc2n(-c2ccccc2)c1=O	i	2.2%	i	3.5e-08	9%
CN1CCN(c2ncc3nc(CCc4ccccc4)c(=O)n(C)c3n2)CC1	i	14%	i	1e-09	?
CC(C)COC(=O)c1ccc(NC(=O)C2C3C=CC(C3)C2C(=O)O)cc1 (centres undefined)	i	0.7%	i	1e-09	?
CCc1nc2c(cnn2-c2ccc(Cl)cc2)c(=O)n1-c1ccc(OC)cc1	i	0.4%	i	2.7e-09	?
COc1ccccc1C(=O)C(O)c1ccccc1OC (centres undefined)	.	0.5%	.	.	3%
COC(=O)c1ccccc1NC(=O)c1cccc(NC(=O)c2ccc(Br)o2)c1C	i	1.8%	i	1e-09	.
CC1(C)Cc2ccccc2-c2nnc(SCC(=O)Nc3ccc4c(c3)OCO4)n21	i	0.7%	i	1e-09	?
COC(=O)[C@@]1(Cc2ccc(F)cc2)[C@H]2c3cc(C(=O)N4CCCC4)n(Cc4ccccc4)c3C[C@H]2CN1C(=O)c1ccccc1	.	3.1%	.	.	?
NC(=O)CSCc1c(Cl)cccc1Cl	i	0.1%	i	5.1e-09	12%
CN(C)CCOC(=O)C1(c2ccccc2)CCOCC1	i	0.6%	i	1e-09	?
COC(=O)c1cc(Br)c(=O)n(-c2ccc(C(C)=O)cc2)c1	i	-2.7%	i	1e-09	0%
O=C(O)c1cnn(-c2ccccc2)c1-n1cccc1	.	0.8%	.	.	8%
Cc1ccc(C)c(NC(=O)CSc2nnc(-c3ccccc3)o2)c1	.	2.9%	.	.	10%
CCOC(=O)c1[nH]c2ccc(C)cc2c1N	i	.	i	6.4e-08	.
CCC(CC)C(=O)NCCc1cc2ccc(C)cc2[nH]c1=O	.	-5.5%	.	.	2%

(more compounds)
smiles	Resorufin autofl	AID923	A488 autofl	A647 fluor	TSHR agonist
CCCCS(=O)(=O)c1sc2nc3c(cc2c1N)CCCC3	i	2.6%	i	4.3e-08	.
Cc1c(C(=O)OCC(=O)c2c(N)n(CC(C)C)c(=O)n(C)c2=O)oc2ccccc12	i	-1.3%	i	1.4e-08	?
COc1ccc(-n2c(Cn3nnc4ccccc43)nnc2SCC(=O)O)cc1	i	-0.2%	i	3.4e-08	0%
CC(C)c1nnc(N2C(=O)c3oc4ccccc4c(=O)c3C2c2ccco2)s1 (centres undefined)	i	1.5%	i	1e-09	-23%
Cn1c(=O)c(-c2cc(F)cc(F)c2)nc2cnc(Nc3ccccc3)nc21	i	4.7%	i	1e-09	-8%
Cc1ccc(/C=N/n2nnnc2N)o1	i	.	i	4.7e-08	.
CN1C(=O)N(c2ccccc2)C(Nc2nncs2)C1(C)C (centres undefined)	i	.	i	1e-09	.
COc1ccc(C(=O)N2CCC3(CC2)CN(Cc2ccc(C#N)cc2)C3)cc1	i	3.9%	i	1e-09	0%
O=C(c1cc2nc3c(c(C(F)(F)F)n2n1)CCc1ccccc1-3)N1CCN2CCCC2C1 (centres undefined)	i	1.5%	i	2.8e-08	1%
COc1ccc(NC(=O)c2ccco2)c(NC(=O)Cc2cccs2)c1	i	-0.1%	i	2.7e-09	8%
Cc1nc(-c2ccccc2)cc(N2CCCC2)n1	.	0.1%	.	.	21%[11.4 µM]
CCOC(=O)c1cnc(-n2nc(C)cc2C)nc1N(CC)CC	i	0.0%	i	4.4e-08	13%
O=C(NC1CCCCC1)C(c1ccccc1)N1CCCC1 (centres undefined)	i	-1.5%	i	1e-09	.
N#CC1=C(N)Oc2cc(O)ccc2C1c1ccccc1 (centres undefined)	.	3.4%	.	.	?
CC(=O)c1ccc(OCc2ccccc2)c(C)c1O	.	-2.9%[11.5 µM]	.	.	8%[11.4 µM]
N#Cc1nc(COc2ccc(-c3ccccc3)cc2)oc1NCc1cccnc1	i	0.4%	i	8.6e-09	9%
COc1ccc(N2CCN(C(=O)COc3ccccc3)CC2)cc1	.	0.4%	.	.	0%[11.4 µM]
C=C(C)[C@@H]1CC=C(C(=O)O)CC1	i	-3.7%	i	1.3e-08	.
COC(=O)c1cc2occc2n1CC(=O)Nc1ccc(OC)c(OC)c1OC	i	1.6%	i	5e-09	?
CC12CCC(=O)N1C(C(=O)Nc1cccc3ccccc13)CS2 (centres undefined)	i	-0.7%	i	2.4e-08	6%
O=C(CSc1ccc2nnc(-c3ccncc3)n2n1)Nc1ccccc1F	.	3.3%	.	.	?
COc1ccc(OCCCC(=O)Nc2ccc3c(c2)OCCO3)cc1	.	-0.9%	.	.	16%[11.4 µM]

Some entries already given, limited to Resorufin autofl, A647 fluor and TSHR agonist.
Structure | Resorufin autofl | A647 fluor | TSHR agonist
Cc1cccc(-c2nnc3n2N=C(c2ccc(Br)cc2)CS3)c1 | i | 2.2e-08 | .
C[C@H](CCC(=O)NCC(=O)O)[C@H]1CC[C@H]2[C@H]3[C@@H](C[C@@H](O)[C@]12C)[C@]1(C)CC[C@H](O)C[C@@H]1C[C@@H]3O | i | 3.1e-09 | -7%[25.6 µM]

Some of these compounds in order of molecular weight, rising.
smiles	Resorufin autofl	AID923	A488 autofl	A647 fluor	TSHR agonist
CCOC(=O)c1cnc(-n2nc(C)cc2C)nc1N(CC)CC	i	0.0%	i	4.4e-08	13%
CC(C)c1nnc(N2C(=O)c3oc4ccccc4c(=O)c3C2c2ccco2)s1 (centres undefined)	i	1.5%	i	1e-09	-23%
O=C(c1cc2nc3c(c(C(F)(F)F)n2n1)CCc1ccccc1-3)N1CCN2CCCC2C1 (centres undefined)	i	1.5%	i	2.8e-08	1%

Screening data: PubChem BioAssay, National Center for Advancing Translational Sciences (NCATS)
